RecA splice inh: Mtb RecA intein splicing inhibitors, primary screen, biochemical, fluorescence, HTS | cell-free RecA intein splicing | inhibition, %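 (about 9 µM by stock and volumes)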 | AID 2221, 2009 | Protein RecA (Mycobacterium tuberculosis (strain ATCC 25618 / H37Rv)), P9WHJ3 | 290,000 compounds, 0.75% hits; in the data active = inhibition above about 30%; inconclusive = no clear call, values can overlap the other calls;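 note: 0% = vehicle wells and 100% = reference inhibitor control wells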
Target sequence (P9WHJ3 whole entry, looked up, canonical isoform): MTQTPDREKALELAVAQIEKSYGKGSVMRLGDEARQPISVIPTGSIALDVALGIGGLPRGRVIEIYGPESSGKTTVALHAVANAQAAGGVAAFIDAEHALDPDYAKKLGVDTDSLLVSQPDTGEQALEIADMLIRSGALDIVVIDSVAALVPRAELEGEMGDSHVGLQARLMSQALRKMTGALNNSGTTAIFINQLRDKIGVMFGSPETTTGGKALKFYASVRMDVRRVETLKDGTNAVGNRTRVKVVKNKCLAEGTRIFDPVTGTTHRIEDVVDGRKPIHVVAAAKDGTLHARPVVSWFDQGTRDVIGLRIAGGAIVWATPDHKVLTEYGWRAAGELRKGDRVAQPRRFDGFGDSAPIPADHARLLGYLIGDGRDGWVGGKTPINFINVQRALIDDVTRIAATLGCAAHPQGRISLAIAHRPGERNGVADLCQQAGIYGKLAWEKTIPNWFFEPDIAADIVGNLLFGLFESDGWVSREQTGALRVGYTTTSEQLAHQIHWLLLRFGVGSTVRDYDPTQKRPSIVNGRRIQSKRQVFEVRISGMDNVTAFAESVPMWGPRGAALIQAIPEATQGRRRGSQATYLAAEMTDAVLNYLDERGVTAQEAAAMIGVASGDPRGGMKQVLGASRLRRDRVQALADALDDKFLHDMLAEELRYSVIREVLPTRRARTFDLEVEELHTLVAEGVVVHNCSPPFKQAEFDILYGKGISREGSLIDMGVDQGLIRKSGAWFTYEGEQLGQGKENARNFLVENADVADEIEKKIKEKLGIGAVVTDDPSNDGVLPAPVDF
YopH PTP inh: YopH tyrosine phosphatase inhibitors, primary screen, biochemical, fluorescence Ex485/Em525; 140,000 compounds, 0.16% hits; YopH tyrosine phosphatase [Yersinia enterocolitica]; inhibition, %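 (about 10 µM by stock and volumes)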;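 active = inhibition of 50% or more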;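 note: controls were vehicle for no effect and minimum signal wells for full effect; inactives centre near -20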
Mtb betalactam: beta-lactam sensitization of Mtb H37Rv, H37Rv. M. tuberculosis H37Rv growth with meropenem, percent inhibition; hits of this screen are not shown here. inhibition, % at 25 µM. 330,000 compounds, 0.27% hits;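 active = about 74% or more and at least 40 points above the plate without the antibiotic, then above 30% in a dose series; inconclusive = first-round hits that could not be retested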;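 note: growth measured after seven days incubation then overnight dye step; 0% = bacteria only wells and 100% = bacteria with antibiotic; twin plates without the antibiotic show which effects depend on it; some results filed as inactive read as strong as hits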
Mtb growth: M. tuberculosis H37Rv growth inhibitors, H37Rv strain (AID 1626). M. tuberculosis H37Rv growth inhibition; higher % means a stronger effect. inhibition, % at 10 µM, or IC50 in µM where a hit was titrated. 220,000 compounds, 0.95% hits;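 active = confirmed in a dose series; inconclusive = inhibition above 80% but not taken into the dose series; inactive = below 80% or under 30% at every dose of the series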;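 note: bacteria incubated seven days before Alamar blue readout; 0% = bacteria only wells and 100% = bacteria with antibiotic wells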
Arbovirus anti: antivirals against arbovirus infection, primary screen, cell-based, full library, 10K replicate subset | arbovirus infection cell-based antiviral screen | inhibition, % at 10 µM | 200,000 compounds, 0.37% hits | AID 1251, 2008;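 active = inhibition from about 30%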;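 note: bluetongue infection of BSR cells; cell survival read as ATP light after 72 h; 0% = infected wells without compound and 100% = uninfected wells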
Arbovirus anti repeat: further read-out of Arbovirus anti, marked with its call; inhibition, %; measured here: 10K subset replicate screen; many hits read low in the repeat;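 first of two repeat runs on a subset; 0% = infected and 100% = uninfected wells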
Starred values were filed as active, the others as inactive; u = inconclusive; x = not tested or not shown. This is a subset. The share of hits here may be higher or lower than overall.

SMILES	RecA splice inh	YopH PTP inh	Mtb betalactam	Mtb growth	Arbovirus anti	others
Nc1ccc(-n2nnnc2-c2ccco2)cc1	2.2	-27	-1	x	-7
Cc1cc(C)c(S(=O)(=O)c2cccc(Br)c2C)c(Cl)n1	1.6	x	12	x	x
C=CCNC(=O)c1ccccc1NS(=O)(=O)c1ccc(SC)cc1	-0.1	-14	0	-2%	-2
CN1CCN(S(=O)(=O)c2ccc(N(C)Cc3cccs3)nc2)CC1	3.3	-37	1	-6%	0
Cc1cc2cccc(C)c2nc1SCC(=O)NC1CCCCC1	-3.2	x	-1	x	x
O=C1C2CCCN2C(=O)N1CCN1CCN(CCO)CC1 (stereo not drawn)	1.1	-11	-6	-4%	-7
CCCCCCCCC(=O)NC(NC(=S)N1CCOCC1)C(Cl)(Cl)Cl (stereo not drawn)	-2.4	-7	1	12%	-14
CCCCOC(=O)c1ccc(NC(=O)C(=O)NCc2cccnc2)cc1	0.2	x	25	22µM*	1
CC(C)COCC(CN(Cc1ccccc1)c1ccccc1)N1CCCC1 (stereo not drawn)	4.6	x	3	15µM*	-22
Nc1c(-c2ccc(Cl)cc2)cnc2ncnn12	-0.9	-40	-3	2%	8
Cc1cc(C)c2c(N)c(C(=O)N/N=C/c3ccccc3)sc2n1	-7.2	x	-3	-4%	x
Cc1ccc2cc(C(c3nnnn3C3CCCC3)N3CCOCC3)c(=O)[nH]c2c1C (stereo not drawn)	4.4	-33	2	-17%	4

4 compounds already listed, arranged by number of heavy atoms, highest first:
SMILES	RecA splice inh	YopH PTP inh	Mtb betalactam	Mtb growth	Arbovirus anti	others
Cc1ccc2cc(C(c3nnnn3C3CCCC3)N3CCOCC3)c(=O)[nH]c2c1C (stereo not drawn)	4.4	-33	2	-17%	4
C=CCNC(=O)c1ccccc1NS(=O)(=O)c1ccc(SC)cc1	-0.1	-14	0	-2%	-2
Cc1cc2cccc(C)c2nc1SCC(=O)NC1CCCCC1	-3.2	x	-1	x	x
Nc1c(-c2ccc(Cl)cc2)cnc2ncnn12	-0.9	-40	-3	2%	8

More compounds
SMILES	RecA splice inh	YopH PTP inh	Mtb betalactam	Mtb growth	Arbovirus anti	others
COc1ccccc1N1CCN(CCCC(=O)c2ccc(F)cc2)CC1	2.7	-39	5	0%	-1	Arbovirus anti repeat=-3
CC1CN(c2nc3ccccn3c(=O)c2C=O)CC(C)O1 (stereo not drawn)	2.7	x	-1	-4%	7
Cc1ccc(NC(=O)CS(=O)Cc2nc(-c3ccc(C)cc3)oc2C)cc1 (stereo not drawn)	1.6	-37	10	2%	5
CCOc1ccc2oc(C(=O)N3CCN(c4ccccn4)CC3)c(C)c2c1	4.2	x	38	x	x
CCc1ccc(/C=C(/C#N)C(N)=S)s1	x	x	-7	-4%	-8
COc1cccc2c1OC1(C)CC2NC(=O)N1 (stereo not drawn)	-0.4	-21	-10	-1%	7
CCOC(=O)Cc1csc(NC(=O)COc2ccccc2OCC)n1	-4.9	23	-12	6%	-2
CCN(CC)C(=S)SC1CCCCN(C(=O)c2ccc(F)cc2)C1=O (stereo not drawn)	5.4	x	-6	1%	2
NCCN1C(=O)S/C(=C\c2ccc3c(c2)OCO3)C1=O	-2.4	x	5	x	x
O=C(CN1C(=O)c2ccccc2C1=O)Nc1cccc(O)c1	-1.9	x	-2	x	x
COc1cccc(Cn2cnc3c(NS(=O)(=O)c4cc(Cl)ccc4Cl)c(C)c(C)cc32)c1	-4.7	-8	2	-14%	-26
O=C(Cn1cnc2nc3n(c2c1=O)CCC3)NCc1ccccc1	-0.4	-24	-2	-2%	2
CCOC(=O)c1snc2c(=O)[nH]cnc12	-3.3	-15	3	-2%	4
CCN(CC)S(=O)(=O)c1cccc(C(=O)NCCCN2CCOCC2)c1	6.7	-38	-7	6%	5
Cc1ccn2c(CNC(C)CCn3cccn3)c(C(=O)N3CCCCCC3)nc2c1 (stereo not drawn)	-1.6	x	-7	0%	6
CC(=O)Nc1nn(C)c2nc3ccc(C)cc3cc12	-68	x	0	x	x
COc1ccccc1NS(=O)(=O)c1cc(NC(=O)c2ccco2)ccc1N1CCOCC1	-1.3	x	6	9%	3
CCc1nnc(NC(=O)c2nc(S(=O)(=O)Cc3ccc(C)cc3)ncc2Cl)s1	76*	x	-1	x	x
O=C(CCCN1C(=O)/C(=C/c2cccs2)SC1=S)NNC(=O)c1ccccc1O	-2.8	-33	-4	-11%	-20
CC1=C(C(=O)OCc2ccccc2)C(c2ccc(Br)cc2)NC(=O)N1CCCC(=O)O (stereo not drawn)	-1.2	x	-12	x	x
CCn1ncc(Br)c1C(=O)Nc1ccn(C23CC4CC(CC(C4)C2)C3)n1	2.9	-15	6	7%	1
CCOC(=O)C1=C(C)N(C)C(C)=C(C(=O)OCC)C1c1ccc(Cl)cc1	11	-17	-8	9%	-5
COc1ccc(OC)c(/C=N/NC(=O)c2[nH]nc3c2CCc2ccccc2-3)c1	-0.2	-29	-1	4%	-12
CCC(NC(=O)Nc1cc(OC)c(OC)c(OC)c1)(C(F)(F)F)C(F)(F)F	-4.9	-49	2	0%	2
Cc1ccc2c(c1)N(CC(=O)N1CCCC(C)C1)C(=O)CO2 (stereo not drawn)	2.8	x	1	x	x
COC(=O)c1ccc(CSc2ccc3nnc(-c4cccc(F)c4)n3n2)o1	-1.8	-35	-3	9%	0	Arbovirus anti repeat=2
CCn1cc(C(=O)NCCc2ccc(OC)c(OC)c2)c(=O)c2cc(S(=O)(=O)N3CCOCC3)ccc21	-0.5	x	1	x	x
O=C(COc1ccc(Br)cc1)Nc1ccc(C(=O)Nc2ccccc2C(=O)O)cc1	2.6	x	6	x	x
CC(NC(=O)c1ccc(CS(=O)(=O)Cc2ccccc2F)o1)c1ccc2c(c1)OCCO2 (stereo not drawn)	2.3	-9	-15	-1%	-1
COc1cccc(CN(C)C(=O)c2ccc(NS(=O)(=O)c3ccc4[nH]c(=O)[nH]c4c3)cc2)c1OC	-1.3	x	-11	x	x
Cc1cccc(-n2cc(C(=O)O)c(=O)cc2C)c1	-0.2	x	12	x	3
O=C(CCC(=O)OCC(=O)c1ccc([N+](=O)[O-])cc1)NC1CCCCC1	-5.4	-18	2	-11%	-11
CC(NS(=O)(=O)c1ccc(OCC(=O)NCc2ccccn2)cc1)c1ccccc1 (stereo not drawn)	-0.8	x	-2	x	x
Cn1c(CCC(=O)OCC(=O)NCC(F)(F)F)nc(=O)c2ccccc21	10	x	-12	0%	5
COc1cccc(NC(=O)Nc2ccc(C(C)(C)C)cc2)c1	-2.3	x	x	-4%	-24
N#C/C(=C/c1ccc(F)cc1)c1nc(CCN2C(=O)c3ccccc3C2=O)cs1	1.1	-5	2	14%	4
Cc1ccc(-c2nnc(C)c(N3CC(C)OC(C)C3)n2)cc1 (stereo not drawn)	0.4	2	-1	-1%	7
CN(C)c1ccc(C(C(=O)NC2CCCC2)N(Cc2cccnc2)C(=O)c2snc(C(N)=O)c2N)cc1 (stereo not drawn)	3.2	x	-2	x	x
O=C(NC1CCCC1)C1CC(=O)N(c2ccc(F)c(Cl)c2)C1 (stereo not drawn)	1.2	x	-2	x	x
CCC(C)n1c(SCC(=O)Nc2cc(C)on2)nc2ccccc2c1=O (stereo not drawn)	0.6	-25	79	-2%	-23
CC(Oc1ccccc1)C(=O)N=C1SC2CS(=O)(=O)CC2N1Cc1ccccc1 (stereo not drawn)	4.0	x	-6	x	x
COC(=O)c1sccc1S(=O)(=O)Nc1ccc(N2CCCCC2)cc1	-3.5	x	-2	-3%	x
COc1cccc(-c2ccc(NC(=O)C3CCCN(Cc4cnc(N(C)C)s4)C3)cc2)c1 (stereo not drawn)	2.9	x	98	x	x
Clc1ccc(-c2csc(N3CCN(c4ccccc4)CC3)n2)cc1	-0.5	-14	4	3%	0
CC1CC(C)(C)NC(=S)N1CCCC(=O)Nc1ccc(Cl)cc1 (stereo not drawn)	0.9	x	-2	-10%	1
COc1ccc(-n2ncc(C(C)NS(=O)(=O)c3ccc(C)s3)c2C)cc1 (stereo not drawn)	0.0	x	-1	x	x
COc1cccc(CN2CCNC(=O)C2CC(=O)NCc2cc(C(C)C)no2)c1 (stereo not drawn)	1.3	x	2	0%	-4
COCCNC(=S)NNC(=O)c1cc(-c2cccnc2)nc2ccccc12	0.2	x	1	x	x
CCOC(=O)C1CCN(C(=S)Nc2cc(OC)c(OC)cc2C(=O)OC)CC1	-0.7	8	-7	-3%	1
Cc1cc(-n2nc(C)cc2C)n2nc(C)c(-c3ccccc3)c2n1	4.3	-19	-1	4%	0
CSc1ccc(/C=C/c2ccc3cccc(O)c3n2)cc1	3.9	x	91	u	-10
COc1ccc(NC(=O)C(c2cc3c(cc2[N+](=O)[O-])OCO3)N(C)Cc2ccccc2)cc1 (stereo not drawn)	5.7	-5	0	8%	2
CN(c1ccccc1)S(=O)(=O)c1nnc(NC(=O)c2ccco2)s1	-0.5	x	2	x	x
Nc1n[nH]c2c1C1(CCCC1)Cc1ccccc1-2	4.7	-17	72	-11%	6
COc1ccc(OCCC(=O)NC2=NCCS2)cc1	2.3	-16	0	-1%	2
Oc1ccc(/C=N/Nc2ccc(C(F)(F)F)cn2)cc1	-3.4	x	-4	6%	-9
CCCc1noc2c1/C(=N\O)CCC2	0.1	12	4	-3%	2
COc1ccc(-n2c(Cn3c(=O)sc4ccccc43)nnc2SCC(=O)N2CCOCC2)cc1	x	-38	-7	-1%	5	Arbovirus anti repeat=-5
CN1CCN(c2nc(N3CCN(CCO)CC3)nc3ccccc23)CC1	3.9	-10	-2	2%	-3
Cc1ccc(S(=O)(=O)N2CCC(C(=O)NNC(=O)C3CC3)CC2)cc1Cl	-2.7	x	2	9%	7

Additional results.
SMILES	RecA splice inh	YopH PTP inh	Mtb betalactam	Mtb growth	Arbovirus anti	others
CC1CCN(c2c([N+](=O)[O-])c(=O)n(-c3ccccc3)c3ccccc23)CC1	-2.7	-39	2	-8%	-5
COc1cccc(N(C(=O)CCl)C(C(=O)NCCc2ccccc2)c2cccs2)c1 (stereo not drawn)	73*	-19	65	-2%	-35
COC(=O)c1ccc(N=c2sc(C(=O)OC)cc(=O)n2C)cc1	x	x	x	8%	3	Arbovirus anti repeat=4
C=CCc1cccc(/C=N/NC(=O)C(=O)Nc2ccc(C)cc2)c1O	-1.2	x	2	5%	-2
Cn1nccc1C(=O)Oc1cccc(/C=N/NC(=O)c2ccccc2O)c1	2.4	x	10	6%	5
O=S(=O)(NCCOc1cccc2cccnc12)c1ccc(F)cc1	0.1	-19	-1	-4%	-5
CSCC[C@H](NC(=O)Cc1c(C)c2cc3c4c(oc3cc2oc1=O)CCCC4)C(=O)O	-2.3	x	u	x	x
CCn1c(=O)c(C(=O)Nn2c(C)nc3ccccc3c2=O)c(O)c2ccccc21	0.7	-32	6	-5%	11
CN1CCN(CC#Cc2ccccc2)CC1CCO (stereo not drawn)	1.0	x	-1	x	x
O=C(NCCN1C(=O)S/C(=C\c2ccccc2)C1=O)C1CCN(S(=O)(=O)c2cccs2)CC1	-0.2	-44	-8	-1%	0
Cc1ccc2[nH]c(=O)c(CN(CC3CCCO3)S(=O)(=O)c3c(C)ccc4nsnc34)cc2c1 (stereo not drawn)	3.7	-19	-5	1%	0
COC(=O)c1ccc(CN2CCCCC2)cc1	0.4	x	-8	-11%	x

Quoted from above for reference:
SMILES	RecA splice inh	YopH PTP inh	Mtb betalactam	Mtb growth	Arbovirus anti	others
CSCC[C@H](NC(=O)Cc1c(C)c2cc3c4c(oc3cc2oc1=O)CCCC4)C(=O)O	-2.3	x	u	x	x
CCn1c(=O)c(C(=O)Nn2c(C)nc3ccccc3c2=O)c(O)c2ccccc21	0.7	-32	6	-5%	11
CN1CCN(CC#Cc2ccccc2)CC1CCO (stereo not drawn)	1.0	x	-1	x	x

The list goes on:
SMILES	RecA splice inh	YopH PTP inh	Mtb betalactam	Mtb growth	Arbovirus anti	others
COc1cc(C2CC(=O)c3cnc(N4CCN(Cc5ccccc5)CC4)nc3C2)cc(OC)c1OC (stereo not drawn)	-0.2	-25	30	-5%	-15
COc1ccc(NC(=O)c2cc(-c3cccc(OC)c3)on2)cc1	1.9	x	-13	-6%	-6
COc1ccc(NC(C)=O)cc1CP(=O)(c1ccccc1)c1ccccc1	-1.2	x	-6	x	x
CC(=O)c1ccc(OCC(O)COc2ccc(C(C)=O)cc2)cc1	-2.6	-22	3	-8%	-4	Arbovirus anti repeat=-3
CCOC(=O)N1CCC(NC(=O)C2=CCN(S(=O)(=O)c3ccccc3)CC2)CC1	-2.9	x	-6	-1%	x
Cc1ccc(NC(=O)NCC2CCN(Cc3cccc(Cl)c3)CC2)c(Cl)c1	-5.7	x	-6	33%	6
CCCc1c(C)nc2c(Br)cccc2c1Cl	1.4	-2	-1	-3%	4
